Six1-Eya2 inh: Six1/Eya2 interaction inhibition. Q15475+O00167. AlphaScreen GST-Six1/His-Eya2 binding, biochemical; stronger effect = lower value; control for the full effect not named in the record. activity change, % (no concentration beside the values). 360,000 compounds, 0.56% hits; in the data active = activity change below about -65%; inconclusive = about -30% to -65%; inactive = above about -30%; note: % is set by controls: 0 for no effect and ±100 for the full control effect
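Six1/Eya2 binding was read as AlphaScreen signal after compounds were pinned into GST-Six1 plus His-tagged Eya2 (5X stock 250/500 nM) in pH 8.0 Tris/NaCl/TCEP buffer, beads added, then incubated 1 h, 37 C, dark.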
D2 ag: activates the human D2 dopamine receptor; activation, % (test concentration not listed); 360,000 compounds, 0.084% hits; DiscoveRx PathHunter D2 beta-arrestin, luminescence, 90 min; 100% = 57 uM dopamine signal; in the data active = activation above about 40%; inconclusive = about 15% to 40%; inactive = below about 15%; note: compound concentration not given in the record; the text of the record calls up to 30% inactive
Target sequence (P14416 whole entry, looked up): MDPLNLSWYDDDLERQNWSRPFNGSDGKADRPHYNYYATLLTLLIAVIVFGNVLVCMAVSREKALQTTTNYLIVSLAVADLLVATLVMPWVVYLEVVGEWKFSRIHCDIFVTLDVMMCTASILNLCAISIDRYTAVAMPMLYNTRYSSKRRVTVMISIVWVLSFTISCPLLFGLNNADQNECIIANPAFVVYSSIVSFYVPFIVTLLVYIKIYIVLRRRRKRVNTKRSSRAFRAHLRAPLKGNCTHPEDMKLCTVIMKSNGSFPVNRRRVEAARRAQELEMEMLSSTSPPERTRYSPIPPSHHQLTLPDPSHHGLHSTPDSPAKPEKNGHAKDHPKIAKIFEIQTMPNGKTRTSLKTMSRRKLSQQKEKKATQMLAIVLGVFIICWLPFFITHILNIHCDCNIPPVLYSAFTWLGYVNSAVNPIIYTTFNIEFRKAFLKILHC
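DiscoveRx PathHunter D2 beta-arrestin cells (2,100/well) attached overnight, then compound-stimulated 90 min at 37 C in HBSS/10 mM HEPES/0.1% Tween-20 buffer; beta-galactosidase complementation read by luminescence after 1 h at ambient temperature. Dopamine 57 uM final (EC100) as control.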
CtBP-E1A inh: blocks the CtBP interaction with E1A; AlphaScreen GST-E1A/His-CtBP binding, 1536-well; stronger effect = lower value; control for the full effect not named in the record; 340,000 compounds, 0.49% hits; activity change, % (concentration not given with the values); AID 651724; in the data active means activity change below about -65%; inconclusive means about -30% to -65%; inactive means above about -30%; note: % is set by controls: 0 for no effect and ±100 for the full control effect
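Homogeneous bead-based format: GST-tagged E1A captured on glutathione donor beads, His-tagged CtBP on nickel acceptor beads; compounds precede bead addition by 2 h at 37 °C.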
D2 PAM: human D2 receptor positive allosteric modulation; DiscoveRx D2 beta-arrestin cells, luminescence, 90 min; 100% = 57 uM dopamine signal; potentiation, % (no concentration beside the values); 360,000 compounds, 0.23% hits; AID 624464; active = potentiation of 50% or more; inconclusive = 30% to 50%; inactive = 30% or less;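 note: compound concentration not given in the record; tested on top of an EC20 dose of dopamine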
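PathHunter D2 cells, attached overnight at 37 deg C, received compound in DMSO plus dopamine at EC20 (50 nM final) for 90 min at 37 deg C. Beta-arrestin recruitment was read as luminescence after 1 h with detection reagent at ambient temperature.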
TRPML1 agonist: agonists of human TRPML1 channel; Q9GZU1; TRPML1-expressing cells, Ca2+ dye fluorescence, FDSS; host cell line not named in the record; reference of the full effect not given here; activation, % (no concentration beside the values); 410,000 compounds, 0.12% hits; AID 624414; in the data active = activation above about 50%; inconclusive = about 30% to 50%; inactive = below about 30%; note: 0% is about no effect; the text of the record puts the active cut at 80%
Target sequence (Q9GZU1 whole entry, looked up): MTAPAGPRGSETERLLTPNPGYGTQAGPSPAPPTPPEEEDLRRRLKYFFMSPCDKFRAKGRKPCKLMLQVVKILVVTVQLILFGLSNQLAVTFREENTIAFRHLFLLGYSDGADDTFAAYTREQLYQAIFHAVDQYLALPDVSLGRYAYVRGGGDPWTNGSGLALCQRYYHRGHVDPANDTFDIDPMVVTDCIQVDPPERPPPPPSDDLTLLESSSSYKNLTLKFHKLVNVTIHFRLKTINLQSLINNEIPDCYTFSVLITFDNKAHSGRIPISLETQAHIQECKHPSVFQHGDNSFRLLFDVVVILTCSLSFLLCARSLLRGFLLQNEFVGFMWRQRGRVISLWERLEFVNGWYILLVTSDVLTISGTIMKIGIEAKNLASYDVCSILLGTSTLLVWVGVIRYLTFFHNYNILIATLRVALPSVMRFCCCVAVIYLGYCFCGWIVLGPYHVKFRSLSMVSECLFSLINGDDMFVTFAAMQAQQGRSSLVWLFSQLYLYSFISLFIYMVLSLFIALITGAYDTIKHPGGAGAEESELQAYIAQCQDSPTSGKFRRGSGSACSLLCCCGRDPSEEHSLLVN
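In this qHTS format, compounds were pin-transferred onto Ca8-dye-loaded TRPML1-DL cells induced with Tet overnight, and intracellular Ca2+ fluorescence was recorded kinetically for 110 s after a 10 s baseline. A subsequent 4uM final 54-4 (EC80) addition followed by a second 110 s read served as the antagonist phase.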
PINK1 expr mod: modulators of PINK1 expression | PINK1 immunofluorescence, high-content cytometry, 24 h | Potency, µM (titrated, usually from 76.6 µM), for inactives: at the top dose activation (PINK1 increase), usual class: activators | 410,000 compounds, 0.2% hits; active = well fitted activation curve with a large enough effect; inconclusive = small, poorly fitted or top-dose-only effect; inactive = flat fitted curve, though single readings scatter; cell line not stated here;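 note: potency is the fitted concentration of half-maximal effect; % of control where 0% means no effect; nearly all actives have a fitted effect of over 65% in size; a mitochondrial uncoupler was the plate control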
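Cells are seeded, rested 12 hours, then given compound at five concentrations or DMSO for 24 hours. After fixation, blocking and antibody staining, PINK1 amount and mitochondrial localization are scored; CCCP serves as control.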
An asterisk follows results filed as active; ? = inconclusive; · = not tested or not shown; [ ] = dose if it differs, or a comment.

SMILES	Six1-Eya2 inh	D2 ag	CtBP-E1A inh	D2 PAM	TRPML1 agonist	PINK1 expr mod
CCCCOc1ccc(C(=O)Nn2cnnc2)cc1	5	-2.5	0	-4	3.3	10%[38.3 µM]
CCOc1ccccc1N1CCN(C(=O)c2ccccc2)CC1	-2	-2.3	4	-4	-0.6	2.7%
COc1ccc(NC(=O)C2CCCC2)cn1	13	-12	0	-2	-1.4	2.9%
COc1ccc(CCNC(=O)/C=C/c2cc(OC)c(OC)c(OC)c2)cc1OC	7	-3.5	16	0	0.3	0.9%
O=C(CSCc1ccc(Cl)cc1Cl)Nc1ccccc1C(=O)Nc1ccc(C(=O)O)cc1	0	-6.7	0	8	0.6	3.3%
O=C1CC(Nc2cc(=O)[nH]c(=O)[nH]2)C(=O)N1c1ccccc1Cl (stereo not drawn)	1	-1.5	1	-1	·	-0.9%
c1ccc(COCC2CCNCC2)cc1	-3	0.2	1	-6	-0.2	0.3%
Cc1cc(NC(=O)Cn2cnc3sccc3c2=O)no1	6	-2.1	-3	-31	0.3	-1.2%
Cc1cc(C)n(CC(O)Cn2cnc3c2c(=O)n(C)c(=O)n3C)n1 (stereo not drawn)	4	-1.6	-2	-11	-0.7	6.8%[38.3 µM]
COCCCNCCCOc1ccc(C(C)(C)c2ccccc2)cc1	0	-4.7	6	-30	0.3	?
CCCN(CCC)S(=O)(=O)c1ccc(C(=O)Nc2cccnc2)cc1	1	3.2	·	-8	1.0	1.0%
CS(=O)(=O)N(CC(=O)N1CCOCC1)c1ccc2c(c1)OCO2	0	1.5	3	21	0.2	0.8%
CCC(=O)c1cn([C@@H](CCC(OC)OC)CC(=O)OC(C)(C)C)cc1CC	-9	-1.0	·	-1	-0.1	4.2%
COCCNC(=O)C(=O)NNS(=O)(=O)c1ccc(Cl)cc1	2	4.6	12	-3	0.3	-0.5%
COc1cccc(N/C(SCc2ccccc2C)=C(/C#N)C(=O)NCc2cccs2)c1	-2	-1.0	-7	-6	4.3	-1.1%
CCC(=O)Nc1ccc(C(=O)NNC(=O)c2cc([N+](=O)[O-])cc([N+](=O)[O-])c2)cc1	2	-2.0	-1	3	-0.1	1.4%
Cc1c[n+](CC(=O)c2ccccc2)cs1	0	-2.0	-6	-17	0.0	0.6%
O=[N+]([O-])c1cc(-c2nc3nc4ccccc4nc3n2CCc2ccccc2)cc([N+](=O)[O-])c1	7	14	0	11	0.0	4.8%
CCOC(=O)N1CCN(C(=O)c2c(-c3ccccc3)noc2C)CC1	27	-2.4	-21	-8	-0.3	0.6%
COc1ccc(CCNC(=O)CS(=O)(=O)Cc2nc(-c3ccccc3Cl)oc2C)cc1OC	-1	-2.7	1	-1	0.0	-0.2%
COc1ccc(Oc2coc3c(CN(C)C)c(O)ccc3c2=O)cc1	4	-2.4	-2	-20	1.1	-0.9%
NC(=O)Cn1nc([N+](=O)[O-])nc1Oc1ccccc1C(=O)N1CCOCC1	7	-0.4	16	9	-0.4	0.8%
COc1ccccc1NC(=S)N1CCN(c2ccc(F)cc2)CC1	5	2.2	·	-5	-1.0	2.1%
O=C(CSc1n[nH]c(-c2ccccn2)n1)Nc1ccccc1	-95*	-0.7	-101*	-10	-0.9	-1.5%
CN(CC(=O)Nc1c(Cl)cccc1Cl)C(=O)C1CC(=O)N(Cc2ccccc2)C1 (stereo not drawn)	8	-3.5	·	-15	-0.1	-0.3%
C/C(=C/C#N)Nc1ccc(C)cc1	6	-3.8	2	-3	-0.2	0.1%
Cc1cc(C(=O)N(C)CC(=O)Nc2ccc(F)c(F)c2F)no1	9	3.9	3	0	0.1	0.0%
COCCn1c(=S)[nH]c2cc(C(=O)N3CCN(c4ccccc4OC)CC3)ccc2c1=O	-3	-1.1	0	-4	1.5	-0.6%[38.3 µM]
O=C(NCc1ccco1)c1cccc(-c2ccc3nncn3c2)c1	-9	3.2	-19	4	2.7	1.6%
CCOCCCNC(=O)c1cccc(OC2CCN(S(C)(=O)=O)CC2)c1	6	-1.4	-3	-4	0.2	0.7%
Cc1ccc(C2(C)NC(=O)N(CC(=O)N3CCN(S(=O)(=O)c4cccs4)CC3)C2=O)cc1 (stereo not drawn)	8	-1.1	-10	-16	0.9	-0.2%
Cc1nn(Cc2ccccc2)c(C)c1NS(=O)(=O)c1ccccc1	3	-0.8	-4	-3	1.4	0.1%
CC(C)COc1ccc(C(=O)Nc2ccc(SC(F)F)cc2)cc1	-6	-2.4	·	-3	0.5	2.1%
COc1ccc(-c2csc(C3=C(O)CN(CCCN4CCCC4=O)C3=N)n2)cc1OC	?	-4.6	-10	-23	-1.0	0.3%
COc1cc(OC)c(C(=O)Oc2ccc3c(c2)OCO3)cc1OC	3	1.1	4	-6	-0.1	1.9%[38.3 µM]
CCOC(=O)c1c(NC(=O)CCS(=O)(=O)c2ccccc2)sc2c1CC(C)(C)NC2(C)C	12	-4.1	-3	0	0.4	0.0%
C=CCn1c(-c2ccccc2)nc(=S)c2c1CCCC2	-2	-3.3	-16	-10	0.3	-1.7%
Cc1nn(Cc2nnc(SCC(=O)Nc3ccc(Cl)cc3)n2C)c(C)c1[N+](=O)[O-]	-11	-2.7	-2	-8	-0.5	-1.3%
O=C(CC1NCCNC1=O)Nc1cc(Cl)cc(Cl)c1 (stereo not drawn)	-1	-4.2	7	-3	-0.1	0.3%
COc1ccc(NC(=O)COc2ccc(/C=N/NC(=O)c3cccnc3)cc2OC)cc1	1	14	·	9	1.4	2.7%
COc1ccc(CC(=O)N(C)Cc2ccc(C(C)(C)C)cc2)cc1S(=O)(=O)N1CCOCC1	-1	-4.1	3	-12	0.3	0.8%
CCC(=O)c1ccc(OCC(=O)N(C)CC(=O)Nc2cccc(F)c2)cc1	4	-1.3	·	?	0.8	1.2%
COc1ccccc1CNC(=O)C(=O)Nc1nccs1	1	-3.8	2	-3	1.9	-0.1%
Cc1occc1C(=O)NNC(=O)c1ccc(S(=O)(=O)N(C)C)cc1	1	-0.7	7	-11	1.6	0.1%
c1cncc(-c2nc3ccccc3s2)c1	-17	-4.8	-6	-10	·	-0.8%
CCCOC(=O)c1ccc(NC(=O)Oc2ccccc2)cc1	3	2.3	-3	-15	0.3	1.2%[38.3 µM]
CCc1ccc(C(=O)CSc2nc(C)cc(=O)[nH]2)cc1	19	1.5	-4	-3	-0.7	-0.5%
CCN1CCCc2cc(CN(CCN3CCOCC3)C(=S)Nc3cccc(C)c3)ccc21	?	1.9	-13	-5	1.8	-0.9%
Cc1nc(NC(=O)C2CC2)sc1C(=O)Nc1ccc(Br)cc1	4	-3.5	-12	-3	0.5	3.1%
Cc1c(C(C)CCCO)oc(=O)c2c1Oc1c(C)c(C(C)C[C@@H](C)O)oc(=O)c1C2 (stereo partly drawn)	-6	-0.4	2	1	0.6	0.7%
CC(=O)Nc1ccc(SC[C@H](Cc2ccccc2)N2CC[C@@H](O)CCC2=O)cc1	-9	-1.8	3	-7	-0.3	-0.1%
Clc1nc(NC2CCCCC2)c2cn[nH]c2n1	-6	0.9	1	-6	0.0	-0.8%
CCOC(=O)CC(NC(=O)c1cc2cccc(OC)c2oc1=O)c1ccc(OC)cc1 (stereo not drawn)	-5	0.0	·	1	-0.5	1.3%
CCN(CC)CCCn1c2c(c(SCC(=O)Nc3nc(C)cs3)nc1=O)CCC2	1	3.0	11	-10	0.4	2.7%
O=C(NNC(=O)c1cc(-c2ccccc2Cl)nc2ccccc12)c1csc(N2CCOCC2)n1	?	-10.0	2	-37	1.2	6.9%
CC1Sc2ccc(S(=O)(=O)CCC(=O)Nc3cc(F)ccc3F)cc2NC1=O (stereo not drawn)	0	2.8	0	12	1.0	1.4%
COc1cc(/C=N/n2cnnc2)ccc1OC(=O)c1ccncc1	1	-0.9	-15	-1	0.1	-1.4%
O=C(OCc1cccc(Cl)c1)c1cc(S(=O)(=O)N2CCCCC2)ccc1N1CCOCC1	0	2.0	2	-17	0.8	0.7%
Cc1cccnc1CN1CCN(C(=O)CCc2nnc(CCc3ccccc3)o2)CC1	3	-1.7	-21	0	0.1	-1.6%
O=S(=O)(c1ccc(S(=O)(=O)N(Cc2cccs2)CC2CCCO2)cc1)N1CCCCC1 (stereo not drawn)	3	1.7	9	-8	0.7	-0.3%[38.3 µM]

Part of the list above, with two lines to a compound:
The line under a structure holds: Six1-Eya2 inh	D2 ag	CtBP-E1A inh	D2 PAM	TRPML1 agonist	PINK1 expr mod
- Cc1cc(C)n(CC(O)Cn2cnc3c2c(=O)n(C)c(=O)n3C)n1 (stereo not drawn)
    4	-1.6	-2	-11	-0.7	6.8%[38.3 µM]
- COCCCNCCCOc1ccc(C(C)(C)c2ccccc2)cc1
    0	-4.7	6	-30	0.3	?
- CCCN(CCC)S(=O)(=O)c1ccc(C(=O)Nc2cccnc2)cc1
    1	3.2	·	-8	1.0	1.0%

Next section:
SMILES	Six1-Eya2 inh	D2 ag	CtBP-E1A inh	D2 PAM	TRPML1 agonist	PINK1 expr mod
COc1ccc(N(CC(=O)Nc2ccc3c(c2)OCO3)S(=O)(=O)c2ccc(F)cc2)cc1	-11	-1.8	-9	-16	3.0	2.1%
CCOC(=O)C1CCN(S(=O)(=O)c2ccc3c(c2)CCCN3C(C)=O)CC1	-1	-3.0	1	-18	1.3	-1.8%
O=C(O)c1ccc2c(c1)C(=O)N(c1cccc(C(=O)/C=C/c3ccccc3)c1)C2=O	2	-5.3	-9	-5	0.0	2.1%
CCOc1cc(-c2nnc(-c3ccco3)o2)cc(OCC)c1OCC	3	5.8	5	10	0.4	12%[38.3 µM]
O=C1CS/C(=N/N=C/c2c[nH]c3ccccc23)N1	3	-2.0	5	-3	0.0	20%
c1ccc(-c2nnc(SCc3nc4ccccc4[nH]3)o2)cc1	-2	-2.4	2	-1	1.1	0.8%
NC(=O)CSc1nc(-c2ccccc2)c(-c2ccccc2)o1	-11	0.9	-14	10	0.4	-0.1%[38.3 µM]
O=C(NCCc1ccc(Cl)cc1)C1CCCO1 (stereo not drawn)	8	-1.0	-17	-3	0.1	0.8%
COC(=O)[C@]1(Cc2ccccc2)N[C@H](c2ccc(-c3ccc(OC)cc3)cc2)[C@@H]2C(=O)N(C)C(=O)[C@@H]21	1	-4.5	5	-7	0.5	-0.9%
CCOC(=O)CSc1nc2ccc(C)cc2cc1C#N	18	-3.0	3	-9	1.7	0.7%[38.3 µM]
CC(C)C(=O)N1CCN(c2ccc(NC(=O)c3cccs3)cc2)CC1	0	-1.2	4	-15	2.4	-1.5%
CC(=O)Nc1cc2c(cc1NC(=O)Cn1nnc(-c3ccc(C)o3)n1)OCCO2	-2	-0.5	-10	-14	0.2	-0.2%
Cn1c(CSc2ncccn2)nnc1SCC(=O)N1CCCCCC1	13	0.4	-21	-9	0.4	0.4%

Screening results deposited in PubChem BioAssay by National Center for Advancing Translational Sciences (NCATS).

Rows were taken by chance; any-hit rate near 1.3%.
